# FGF22 binding: binders of recombinant human FGF22 by thermal shift | Q9HCT0 | SYPRO orange fluorescence; percent of sucrose octasulfate shift, DMSO zero | calls only at 9.99 µM | actives 1.5% (n = 340,000);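 active = melting point raised past a set limit in the mean and every replicate; three in four hits are not shown here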
# Target sequence (Q9HCT0 whole entry, looked up): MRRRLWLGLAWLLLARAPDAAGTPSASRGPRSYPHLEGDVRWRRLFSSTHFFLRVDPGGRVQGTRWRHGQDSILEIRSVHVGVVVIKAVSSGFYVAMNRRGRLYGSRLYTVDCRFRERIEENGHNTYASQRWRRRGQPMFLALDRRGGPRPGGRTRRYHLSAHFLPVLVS
# Calls only; i = inactive; + = active, no number.
# Preview:
entry	canonical_smiles	FGF22 binding
1	Cc1noc(C)c1NC(=O)N(C)C[C@@H]1OCCCC[C@@H](C)Oc2ccc(NC(=O)Nc3ccc4c(c3)OCO4)cc2C(=O)N([C@H](C)CO)C[C@@H]1C	i
2	CC(C)NC(=O)Nc1ccc2c(c1)C(=O)N([C@@H](C)CO)C[C@H](C)[C@@H](CN(C)C(=O)Nc1ccc(F)cc1)O2	i
3	C[C@H](CO)N1C[C@H](C)[C@H](CN(C)CC2CC2)OCCCC[C@H](C)Oc2ccc(NC(=O)Nc3cccc4ccccc34)cc2C1=O	i

# This part in full (from the top)
entry	canonical_smiles	FGF22 binding
1	Cc1noc(C)c1NC(=O)N(C)C[C@@H]1OCCCC[C@@H](C)Oc2ccc(NC(=O)Nc3ccc4c(c3)OCO4)cc2C(=O)N([C@H](C)CO)C[C@@H]1C	i
2	CC(C)NC(=O)Nc1ccc2c(c1)C(=O)N([C@@H](C)CO)C[C@H](C)[C@@H](CN(C)C(=O)Nc1ccc(F)cc1)O2	i
3	C[C@H](CO)N1C[C@H](C)[C@H](CN(C)CC2CC2)OCCCC[C@H](C)Oc2ccc(NC(=O)Nc3cccc4ccccc34)cc2C1=O	i
4	C[C@@H]1CN([C@H](C)CO)C(=O)c2cc(NS(=O)(=O)c3ccc(F)cc3)ccc2O[C@H]1CN(C)Cc1ccc(Cl)c(Cl)c1	i
5	O=C(NCc1ccccc1)[C@@H]1CCCN1C(=O)[C@H]1CCCN1C(=O)c1cc(F)cc(F)c1	i
6	CC(C)NC[C@H]1[C@@H](c2ccc(-c3ccccc3)cc2)[C@@H](CO)N1CC1CC1	i
7	C[C@H]1CN([C@@H](C)CO)C(=O)c2cc(C#Cc3cccnc3)cnc2O[C@@H]1CN(C)Cc1ccncc1	i
8	CC(C)NC(=O)N[C@H]1C[C@@H]2O[C@@H](CO)CC[C@@H]2O[C@@H]1CCc1ccc(-c2ccccc2F)cc1	i
9	Cc1ccccc1S(=O)(=O)N1CC[C@@H]2[C@H]1c1cc(-c3ccc(F)cc3)ccc1N[C@@H]2CO	i
10	C[C@H]1CN([C@@H](C)CO)C(=O)c2cc(-c3ccncc3)cnc2O[C@@H]1CN(C)C(=O)Nc1ccc2c(c1)OCO2	i
11	CO[C@@H]1CN(C)C(=O)c2ccc(NC(=O)C3CCOCC3)cc2OC[C@@H](C)N(Cc2cccnc2)C[C@H]1C	i
12	Clc1ccc(CN2CCN(c3ncc(Cc4ccccc4)cn3)CC2)c(Cl)c1	i
13	C[C@@H]1CN([C@H](C)CO)C(=O)c2cc(NS(=O)(=O)c3ccccc3)ccc2O[C@@H](C)CCCCO[C@H]1CN(C)C(=O)NC1CCCCC1	i
14	C[C@@H]1CN([C@@H](C)CO)C(=O)c2c(c3ccccc3n2C)-c2ccccc2CO[C@@H]1CN(C)C(=O)Nc1ccnc(N2CCOCC2)c1	i
15	CN(C)C(=O)[C@@H]1[C@@H](CO)[C@@H]2Cn3c(ccc(C4=CCCCC4)c3=O)[C@H]1N2C	i
16	O=C(C[C@H]1C=C[C@@H](NS(=O)(=O)c2ccc(F)cc2)[C@@H](CO)O1)NCCc1ccncc1	i
17	C[C@@H]1CN([C@@H](C)CO)C(=O)c2cc(NS(=O)(=O)c3cn(C)cn3)ccc2O[C@@H](C)CCCCO[C@@H]1CN(C)Cc1ccncc1	i
18	C[C@H]1CN([C@@H](C)CO)C(=O)c2cc(NC(=O)Nc3ccc(F)cc3)ccc2O[C@@H]1CN(C)Cc1ccc2c(c1)OCO2	i
19	C[C@@H]1CN([C@@H](C)CO)C(=O)Cc2cc(NC(=O)Cc3cn(C)c4ccccc34)ccc2O[C@@H]1CN(C)Cc1ccc(-c2ccccc2)cc1	i
20	C[C@H]1CN([C@@H](C)CO)C(=O)c2cc(NC(=O)Cc3ccccc3)ccc2O[C@@H]1CN(C)CC1CC1	i

# Some of these compounds in order of count of non-hydrogen atoms, high to low.
entry	canonical_smiles	FGF22 binding
14	C[C@@H]1CN([C@@H](C)CO)C(=O)c2c(c3ccccc3n2C)-c2ccccc2CO[C@@H]1CN(C)C(=O)Nc1ccnc(N2CCOCC2)c1	i
17	C[C@@H]1CN([C@@H](C)CO)C(=O)c2cc(NS(=O)(=O)c3cn(C)cn3)ccc2O[C@@H](C)CCCCO[C@@H]1CN(C)Cc1ccncc1	i
6	CC(C)NC[C@H]1[C@@H](c2ccc(-c3ccccc3)cc2)[C@@H](CO)N1CC1CC1	i

# Following part
entry	canonical_smiles	FGF22 binding
21	O=C(Nc1cccc(F)c1)N1C[C@H]2[C@@H](c3ccccc31)[C@H](CO)N2C(=O)c1ccccn1	i
22	C[C@@H]1CN([C@H](C)CO)C(=O)c2cc(C3=CCCCC3)cnc2O[C@H]1CN(C)C(=O)Cc1cccnc1	i
23	CN1C(=O)c2cc(NC(=O)c3ccc(F)c(F)c3)ccc2OC[C@H]2O[C@@H](CC(=O)N3CCOCC3)CC[C@@H]21	i
24	C[C@@H]1CN([C@H](C)CO)S(=O)(=O)c2ccc(C#CC3CC3)cc2O[C@@H]1CN(C)Cc1cccc(F)c1	i
25	C[C@@H]1CCCCO[C@@H](CN(C)S(=O)(=O)c2cn(C)cn2)[C@@H](C)CN([C@H](C)CO)C(=O)c2cc(NC(=O)NC3CCCCC3)ccc2O1	i
26	COc1ccc(CN(C)C[C@H]2Oc3ccc(NC(=O)Nc4ccc(OC)cc4)cc3CC(=O)N([C@@H](C)CO)C[C@@H]2C)cc1	i
27	C[C@H](NC(=O)C[C@H]1CC[C@@H](NC(=O)Nc2ccc3c(c2)OCO3)[C@@H](CO)O1)c1ccccc1	i
28	CCN1[C@@H]2c3ccc(-c4ccccc4)c(=O)n3C[C@@H]2[C@@H](CO)[C@@H]1C(=O)Nc1ccccc1	i
29	COCC(=O)Nc1ccc2c(c1)C(=O)N(C)C[C@@H](OC)[C@@H](C)CN(Cc1cc(F)ccc1F)[C@H](C)CO2	i
30	Cc1noc(C)c1NC(=O)Nc1ccc2c(c1)C(=O)N([C@@H](C)CO)C[C@@H](C)[C@@H](CN(C)Cc1ccc(C(=O)O)cc1)OCCCC[C@H](C)O2	i
31	CNC[C@H]1Oc2ncc(C#Cc3cccc(OC)c3)cc2C(=O)N([C@H](C)CO)C[C@H]1C	i
32	COc1cccc(C(=O)Nc2ccc3c(c2)OC[C@@H](C)NC[C@@H](C)[C@H](OC)CN(C)C3=O)c1	i
33	O=C(NCc1cc(F)cc(F)c1)[C@H]1[C@H](CO)[C@H]2Cn3c(cccc3=O)[C@@H]1N2	i
34	Cc1cc(Oc2cccnc2)ccc1NC(=O)Cc1c[nH]c2ccccc12	i
35	CCCNC(=O)C[C@@H]1C[C@@H]2c3cc(NC(=O)Nc4ccc(OC)cc4)ccc3O[C@@H]2[C@@H](CO)O1	i
36	Cc1ccc(S(=O)(=O)N(C)C[C@H]2OCCCC[C@@H](C)Oc3ccc(NC(=O)Nc4ccccc4)cc3C(=O)N([C@H](C)CO)C[C@H]2C)cc1	i
37	C[C@H](NC(=O)C[C@@H]1CC[C@@H]2[C@@H](COc3ccc(NS(=O)(=O)c4ccc(Cl)cc4)cc3C(=O)N2C)O1)c1ccccc1	i
38	O=C(NCC[C@H]1CC[C@@H](NS(=O)(=O)Cc2ccccc2)[C@H](CO)O1)C1CCC1	i
39	COc1ccc(S(=O)(=O)N(C)C[C@@H]2Oc3ccc(NS(=O)(=O)c4ccc(Cl)cc4)cc3CC(=O)N([C@H](C)CO)C[C@@H]2C)cc1	i
40	C[C@@H]1CN([C@@H](C)CO)C(=O)c2cc(NC(=O)Nc3ccccc3)ccc2O[C@@H](C)CCCCO[C@H]1CN(C)Cc1ccc(C(=O)O)cc1	i
41	CC(C)NC(=O)N(C)C[C@H]1Oc2ncc(C#CC3(O)CCCC3)cc2C(=O)N([C@H](C)CO)C[C@H]1C	i
42	CCNC(=O)Nc1ccc2c(c1)C(=O)N(C)[C@@H]1CC[C@@H](CC(=O)NCc3cccc(F)c3)O[C@@H]1CO2	i
43	C/C=C/c1cnc2c(c1)C(=O)N([C@@H](C)CO)C[C@@H](C)[C@@H](CN(C)Cc1ccccc1)O2	i
44	C[C@@H]1CN([C@H](C)CO)C(=O)c2cccc(NC(=O)Nc3ccc(F)cc3)c2O[C@H]1CN(C)C(=O)Nc1ccccc1	i
45	O=C(C[C@H]1C=C[C@@H](NS(=O)(=O)c2ccccc2)[C@@H](CO)O1)NCc1ccncn1	i
46	C[C@H]1CN([C@@H](C)CO)C(=O)c2cccc(NC(=O)c3ccncc3)c2O[C@@H]1CN(C)Cc1ccc2c(c1)OCO2	i
47	C[C@H](O)C#Cc1ccc([C@H]2[C@@H](CO)N3CCCCN(C(=O)c4ccc(F)cc4)C[C@H]23)cc1	i
48	COCC(=O)N1[C@H](C#N)[C@H](c2ccccc2-c2ccc(C)cc2)[C@@H]1CO	i
49	Cc1noc(C)c1S(=O)(=O)N(C)C[C@@H]1OCCCC[C@@H](C)Oc2ccc(NC(=O)CCC(F)(F)F)cc2C(=O)N([C@@H](C)CO)C[C@@H]1C	i
50	Cc1noc(C)c1S(=O)(=O)N(C)C[C@@H]1Oc2ccc(NS(C)(=O)=O)cc2C(=O)N([C@@H](C)CO)C[C@@H]1C	i
51	C[C@H](CO)N1C[C@H](C)[C@H](CN(C)Cc2ccc(Oc3ccccc3)cc2)Oc2c(NS(=O)(=O)c3ccccc3)cccc2C1=O	i
52	CNC[C@@H]1Oc2ccc(NC(=O)Nc3ccc(F)cc3)cc2CC(=O)N([C@@H](C)CO)C[C@H]1C	i
53	C[C@@H]1CN([C@@H](C)CO)C(=O)c2cc(C#CC3CCCC3)cnc2O[C@H]1CN(C)C(=O)C1CC1	i
54	CC(C)NC(=O)N(C)C[C@H]1Oc2cc(-c3ccccc3F)ccc2S(=O)(=O)N([C@@H](C)CO)C[C@H]1C	i
55	CO[C@@H]1CN(C)C(=O)c2cc(NS(C)(=O)=O)ccc2OC[C@@H](C)N(Cc2ccccc2)C[C@H]1C	i
56	C[C@H]1CN([C@@H](C)CO)C(=O)c2cc(NC(=O)Cc3cn(C)c4ccccc34)ccc2O[C@@H]1CN(C)Cc1ccc2c(c1)OCO2	i
57	C[C@@H]1CCCCO[C@@H](CN(C)Cc2ccc(C(=O)O)cc2)[C@H](C)CN([C@H](C)CO)C(=O)c2cc(NC(=O)c3ccncc3)ccc2O1	i
58	COCC(=O)Nc1ccc2c(c1)[C@H]1C[C@@H](CC(=O)N[C@H](C)c3ccccc3)O[C@@H](CO)[C@H]1O2	i
59	CC(C)C#Cc1cnc2c(c1)C(=O)N([C@H](C)CO)C[C@@H](C)[C@@H](CN(C)C(=O)CCN1CCCCC1)O2	i
60	C[C@@H]1CCCCO[C@@H](CN(C)Cc2ccncc2)[C@H](C)CN([C@@H](C)CO)C(=O)c2cc(NC(=O)Nc3ccccc3)ccc2O1	i

# Reformatted with values ahead of the structure: entries from further up
nr	FGF22 binding	compound
57	i	C[C@@H]1CCCCO[C@@H](CN(C)Cc2ccc(C(=O)O)cc2)[C@H](C)CN([C@H](C)CO)C(=O)c2cc(NC(=O)c3ccncc3)ccc2O1
58	i	COCC(=O)Nc1ccc2c(c1)[C@H]1C[C@@H](CC(=O)N[C@H](C)c3ccccc3)O[C@@H](CO)[C@H]1O2

# Carrying on:
entry	canonical_smiles	FGF22 binding
61	Cc1ccc(S(=O)(=O)Nc2ccc3c(c2)CC(=O)N([C@H](C)CO)C[C@@H](C)[C@H](CN(C)Cc2ccc(Oc4ccccc4)cc2)O3)cc1	i
62	CS(=O)(=O)Nc1ccc2c(c1)[C@@H]1C[C@@H](CC(=O)NC3CCCC3)O[C@@H](CO)[C@@H]1O2	i
63	CN(C)CCCNC(=O)C[C@@H]1CC[C@@H](NS(=O)(=O)c2ccccc2)[C@@H](CO)O1	i
64	COc1ccc2c3c(n(C)c2c1)[C@H](CO)N(S(C)(=O)=O)CC31CCN(CC2CCCC2)CC1	i
65	Cc1ccc(S(=O)(=O)N[C@@H]2C=C[C@@H](CC(=O)NCCc3ccncc3)O[C@@H]2CO)cc1	i
66	CN1c2ccc(-c3ccc(F)cc3)cc2[C@@H]2[C@@H](CCN2C(=O)Nc2ccc(F)cc2)[C@@H]1CO	i
67	C[C@H]1CN([C@@H](C)CO)C(=O)c2cccc(NS(=O)(=O)c3ccc(Cl)cc3)c2O[C@H]1CN(C)Cc1ccc(C(=O)O)cc1	i
68	C[C@@H]1CN([C@@H](C)CO)S(=O)(=O)c2ccc(C#CCC3CCCC3)cc2O[C@@H]1CN(C)C(=O)c1ccccn1	i
69	COC(=O)c1cc2c(c3c4cc(F)ccc4n(S(=O)(=O)c4ccccc4)c13)C(=O)N(Cc1ccccc1)C2	i
70	C[C@H]1CN([C@@H](C)CO)C(=O)c2c(c3ccccc3n2C)-c2ccccc2CO[C@H]1CN(C)Cc1ccc(C(=O)O)cc1	i
71	CCC(=O)N[C@@H]1C=C[C@@H](CC(=O)NCCN2CCCCC2)O[C@@H]1CO	i
72	O=C(Nc1ccc(Cl)c(Cl)c1)N[C@H]1CC[C@@H](CCNC(=O)c2ccc(F)cc2)O[C@H]1CO	i
73	COc1ccc(S(=O)(=O)Nc2cccc3c2O[C@H](CN(C)CC2CCCCC2)[C@H](C)CN([C@@H](C)CO)C3=O)cc1	i
74	COc1cccc(CNC(=O)C[C@@H]2C=C[C@H](NS(=O)(=O)c3ccccc3OC)[C@@H](CO)O2)c1	i
75	C[C@@H]1CN([C@@H](C)CO)C(=O)c2cccc(N(C)C)c2O[C@@H]1CN(C)Cc1ccc(C(=O)O)cc1	i
76	COC(=O)N(C)C[C@H]1OCc2ccccc2-c2c(n(C)c3ccccc23)C(=O)N([C@H](C)CO)C[C@H]1C	i
77	CCCNC(=O)Nc1ccc2c(c1)C(=O)N(C)[C@@H]1CC[C@H](CC(=O)NCC3CCCCC3)O[C@H]1CO2	i
78	C[C@@H]1CN([C@@H](C)CO)S(=O)(=O)c2ccc(C#CCN(C)C)cc2O[C@@H]1CN(C)C(=O)CN(C)C	i
79	O=C(NCC[C@H]1CC[C@@H](NC(=O)C2CCOCC2)[C@H](CO)O1)Nc1ccc(Cl)cc1	+
80	C/C=C/c1ccc([C@H]2[C@H](CO)N3CCCCN(S(=O)(=O)c4ccc(F)cc4)C[C@@H]23)cc1	i
81	CO[C@H]1CN(C)C(=O)c2ccc(NC(=O)NC(C)C)cc2OC[C@H](C)N(C(=O)CN(C)C)C[C@@H]1C	i
82	COc1ccc2c3c([nH]c2c1)[C@H](CO)N(Cc1nccs1)CC31CCN(C(=O)C2CCOCC2)CC1	i
83	C[C@H](NC(=O)C[C@H]1CC[C@@H]2[C@H](COC[C@H](O)CN2Cc2ccc(C(F)(F)F)cc2)O1)c1ccccc1	i

# The list is partial (hit frequency here may not be typical).
